# CDC25B CDK2 inh – human CDC25B-CDK2/CyclinA binding inhibition; P30305+P24941; HTRF CDC25B-CDK2/CyclinA binding, anti-His/anti-Flag; active compounds read high; z-score (concentration not given with the values); 0.72% of 94,000 active;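 also: score is relative to mean and SD of negative controls; strong numbers were not always called active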
# HIV TAR-Tat – HIV-1 TAR-Tat binding disruption; HIV-1 TAR RNA, Tat peptide displacement FRET; active compounds read high; z-score (no concentration beside the values); 0.6% of 100,000 active;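 also: score is relative to mean and SD of negative controls; some compounds called inactive have numbers as strong as hits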
# Starred values were filed as active, the others as inactive; x = not tested or not shown.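 The calls were made as follows: active = z-score from 3 up in half or more of its runs; inactive = the rest.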
# Below each SMILES: CDC25B CDK2 inh, HIV TAR-Tat
> CC1(C)CC(=O)C2=C(C1)Nc1ccc3ccccc3c1C2c1ccc(F)cc1 (stereo not drawn)
 : -0.94, 0.79
> CCOc1ccc(-c2cnc(NCc3ccc(SC)cc3)n2C)cc1
 : 0.09, -0.97
> COCCOC(=O)c1c(C)oc2ccc(OC)cc12
 : 1.54, 0.55
> Cc1ccc(-c2onc(C)c2C)cc1S(=O)(=O)Nc1ccc(Cl)cn1
 : x, 1.27
> Cc1ccc(NC2=NC(c3ccc(Cl)cc3)n3c(nc(C)cc3=O)N2)cc1 (stereo not drawn)
 : 0.5, -1.67
> Cc1nnc(NC(=O)CSc2nnc3c(n2)[nH]c2ccccc23)s1
 : -2.58, 0.74
> COc1ccc(OCc2nn3c(-c4ccc(C)cc4)nnc3s2)cc1
 : -1.22, 0.5
> CN(CC(=O)NCC1COc2ccccc2O1)S(=O)(=O)c1ccc2c(c1)c(=O)n(C)c(=O)n2C (stereo not drawn)
 : -0.11, x
> COc1ccc(C(=O)c2cn(Cc3ccccc3F)c3cc4c(cc3c2=O)OCO4)cc1
 : -1.02, 0.14
> COc1ccc(C2C3=C(CCCC3=O)Nc3nc(-c4ccc(N(C)C)cc4)nn32)cc1OC (stereo not drawn)
 : -3.75, 0.16
> CC1=C(c2ccc(C)c(C)c2)S(=O)(=O)N=C1Nc1ccc(F)cc1C
 : -1.17, 1.04
> Cc1ccc(C2N3CC4(C)CN2CC(C)(C3)C4O)cc1 (stereo not drawn)
 : -0.99, x
> O=C(O)CSc1ccc(Cl)nn1
 : -1.92, 3.25
> CN(C)c1ccc(NC(=O)COc2ccc(Br)cc2)cc1
 : -2.48, 0.33
> CN(CCCN1C(=O)CCC1(C)C(=O)NC1CCCC1)C1CCCCC1 (stereo not drawn)
 : -0.44, 1.45
> COCCNC(=O)c1nn2c(c1Cl)NC(c1ccc(Br)cc1)CC2C(F)(F)F (stereo not drawn)
 : -1.25, 1.11
> CC(C)COc1cccc(-c2cc(C(=O)O)c3ccccc3n2)c1
 : -0.24, x
> Cc1nc2c(c(C)nn2C(C)(C)C)c(C)c1CCC(=O)NC(C)c1ccc2c(c1)OCCO2 (stereo not drawn)
 : -2.21, 2.75
> CN1C(C(=O)NC(C)(C)C)=CC(c2ccco2)=NS1(=O)=O
 : -1.08, -0.31
> COc1ccc(Cl)cc1-c1noc(-c2ccccn2)n1
 : -22.8, 0.08
> CC1CCN(CCCNC(=O)c2ccc3c(=O)n4c(nc3c2)CCCCC4)CC1
 : -0.85, x
> CC1CCc2cc(F)cc3c(=O)c(C(=O)O)cn1c23 (stereo not drawn)
 : x, 1.97
> CS(=O)(=O)Nc1cccc(C2=NN(C(=O)c3ccco3)C(c3ccccc3F)C2)c1 (stereo not drawn)
 : -2.74, x
> COC(=O)c1cc(C)[nH]c1C
 : -2.53, x
> CCc1nc2nc(C)cc(Nc3ccc(F)cc3)n2n1
 : -1, 0.68
> CCc1nc2c(=O)n(C)c3c(c(=O)n(C)c(=O)n3C)c2o1
 : -0.91, x
> Cc1ccc(S(=O)(=O)c2n[nH]n3c2nc(=O)c2ccccc23)cc1
 : x, 1.03
> CCOc1ccccc1C1Nc2ccccc2NC2=C1C(=O)CC(C)(C)C2 (stereo not drawn)
 : -1.42, 2.47
> O=C(Nc1ccc(Cl)cc1F)c1cc(CN2CCCC2)on1
 : 1.62, -0.97
> CC(=O)N1c2ccc(S(=O)(=O)N3CCCC3C(=O)Nc3ncccc3C)cc2CC1C (stereo not drawn)
 : x, 1.39
> CCN(CC)c1nn2c(=O)c(C(=O)NCCN3CCCC3)cnc2s1
 : x, 0.46
> CCS(=O)(=O)N1CCCc2ccc(NS(=O)(=O)c3ccc(C)s3)cc21
 : x, -0.12
> COc1ccc(-c2nc(SCC(=O)Oc3ccc(C)c(C)c3)n3[nH]c(=O)cc3n2)cc1
 : x, 3.3
> CC1(C(=O)NC2CCCC2)Cn2c(ccc2-c2ccco2)C(=O)N1CC1CCCO1 (stereo not drawn)
 : x, 1.03
> O=S(=O)(Nc1cc(C(F)(F)F)ccc1N1CCOCC1)c1cc(Cl)sc1Cl
 : -2.75, x
> CCn1c(C(=O)NC2CCC(C)CC2)cc2sc(Cl)cc21 (stereo not drawn)
 : -1.64, x
> COCCCNc1nc2c(-c3cccc(F)c3)nnn2c2ccc(Cl)cc12
 : -0.65, -0.96
> CC1=C(C(=O)OCc2ccccc2)C(c2ccc(OCc3ccccc3)cc2)n2nnnc2N1 (stereo not drawn)
 : x, -1.38
> O=C1CCSc2ccccc2N1Cc1ccccc1F
 : -0.63, x
> COc1ccccc1C1Nc2c(C)cc(C)cc2-c2cc(C)nn21 (stereo not drawn)
 : -0.32, 2.06
> Cn1cc(S(=O)(=O)N2CCc3ccccc32)cc1C(=O)NC1CCCCC1
 : x, 1.29
> CCOc1ccc(/C=N/NC(=O)c2ccccc2-n2cccc2)cc1
 : -0.35, x
> CN(CCNS(=O)(=O)c1cc2c(cc1Cl)NC(=O)CO2)Cc1ccccc1
 : x, -0.52
> COc1cc(OC)cc(-c2nc3n(n2)C(c2ccc(F)cc2)C2=C(CCCC2=O)N3)c1 (stereo not drawn)
 : -0.58, 0.16
> CC(=O)N1c2ccccc2C(=O)C1N(Cc1cccs1)C1CCCC1 (stereo not drawn)
 : x, 0.54

# Four entries from above in a different format.
structure: CCN(CC)c1nn2c(=O)c(C(=O)NCCN3CCCC3)cnc2s1
  CDC25B CDK2 inh: x; HIV TAR-Tat: 0.46

structure: COc1cc(OC)cc(-c2nc3n(n2)C(c2ccc(F)cc2)C2=C(CCCC2=O)N3)c1 (stereo not drawn)
  CDC25B CDK2 inh: -0.58; HIV TAR-Tat: 0.16

structure: COCCCNc1nc2c(-c3cccc(F)c3)nnn2c2ccc(Cl)cc12
  CDC25B CDK2 inh: -0.65; HIV TAR-Tat: -0.96

structure: CCS(=O)(=O)N1CCCc2ccc(NS(=O)(=O)c3ccc(C)s3)cc21
  CDC25B CDK2 inh: x; HIV TAR-Tat: -0.12

# The main list resumes with the five entries that preceded the break.
Molecule | CDC25B CDK2 inh | HIV TAR-Tat
Cn1cc(S(=O)(=O)N2CCc3ccccc32)cc1C(=O)NC1CCCCC1 | x | 1.29
CCOc1ccc(/C=N/NC(=O)c2ccccc2-n2cccc2)cc1 | -0.35 | x
CN(CCNS(=O)(=O)c1cc2c(cc1Cl)NC(=O)CO2)Cc1ccccc1 | x | -0.52
COc1cc(OC)cc(-c2nc3n(n2)C(c2ccc(F)cc2)C2=C(CCCC2=O)N3)c1 (stereo not drawn) | -0.58 | 0.16
CC(=O)N1c2ccccc2C(=O)C1N(Cc1cccs1)C1CCCC1 (stereo not drawn) | x | 0.54
CCOc1ccc2c(c1)n(CO)c(=S)n2CO | -2.21 | x
Nc1nc(NCc2ccccc2)nc(NCc2ccccc2)c1[N+](=O)[O-] | -1.09 | x
COCC(C)NC(=O)C(=O)c1c(C)n(C)c2ccccc12 (stereo not drawn) | -1.35 | x
Cc1cc2oc3c(c(=O)c2cc1C)C(c1ccc(F)cc1)N(c1ccccn1)C3=O (stereo not drawn) | -1.31 | 1.8
C#CCNS(=O)(=O)c1cc(OCC(F)(F)F)ccc1OCC(F)(F)F | -1.43 | x
CC(=O)Nc1ccc2c(c1)nc1n2CCN(C2CCCCC2)C1 | 1.88 | -0.03
CCCN(CCC)C(=O)c1oc2ccccc2c1N | -1.4 | 2.01
CCN(C(=O)c1cc2c(s1)-c1ccccc1OC2)c1ccccc1F | 0.27 | 0.11
CCc1nnc(NC(=O)C2CCC(CNc3c(N4CCOCC4)c(=O)c3=O)CC2)s1 (stereo not drawn) | -2.94 | 10.9
CC1CCCN(c2ncnc3c2cnn3C)C1 (stereo not drawn) | x | 0.28
COCCCNC(=O)NC(C)c1c(-n2cccc2)sc(C)c1C (stereo not drawn) | -0.54 | 0.11
O=c1[nH]c2cccnc2[nH]c1=O | -1.82 | x
O=C(NCc1ccco1)c1cc2ccccc2c(=O)s1 | -2 | 1.17
COc1cc(NCc2cccn2-c2nnc(N3CCC(C)CC3)s2)cc(OC)c1 | x | 0.57
c1csc(-c2csc(-c3ccc4c(c3)OCCO4)n2)c1 | -1.45 | x
COc1cc(CO)ccc1OCc1nnnn1-c1ccc(C)cc1 | -0.57 | -0.58
O=C(Nc1ccc2c(c1)OCO2)N1CCC(n2nnc3ccccc3c2=O)CC1 | x | 2.27
Cc1cc(C)c(C#N)c(Nc2ccccc2C)n1 | 0.07 | -0.55
Cc1noc(/C=C/N2CCOCC2)c1S(=O)(=O)N(C)CCc1ccc(Cl)cc1 | x | 1.39
CCN1CCN(c2nc3c(c(=O)n(C)c(=O)n3C)n2Cc2ccc(Br)cc2)CC1 | -0.7 | -0.83
Cc1ccc(-c2c(C(F)(F)F)nn3c(N4CCN(C)CC4)cc(C)nc23)cc1 | -0.88 | -0.58
COc1ccc(-c2nnc(Nc3ccc4c(c3)ncn4C)c3ccccc23)cc1 | -1.11 | 1.77
Cc1cc(Nc2ccc(Cl)cc2)n2c(nc3ccccc32)c1C#N | -2.92 | -4.27
CC1CCCN(C(=O)C(Cc2ccccc2)NS(=O)(=O)c2ccc3c(c2)CCC(=O)N3)C1 (stereo not drawn) | -0.62 | x
Cc1cc2n(n1)C(c1ccc(N3CCOCC3)cc1)Nc1ccccc1-2 (stereo not drawn) | -1.54 | 1.45
COC(=O)c1ccccc1-n1c(CCC(=O)O)ccc1-c1ccc(F)cc1 | -1.69 | x
CCC(=O)N1c2ccccc2CC1C(=O)N1CCN(c2ccccn2)CC1 (stereo not drawn) | x | 1.07
CCOc1cc(/C=C2/SC(=S)N(Cc3ccccc3)C2=O)ccc1OS(=O)(=O)c1ccccc1[N+](=O)[O-] | -1.55 | x
Cc1nn2c(=O)cc(CSc3nc4ccccc4[nH]3)nc2s1 | -0.6 | -0.1
CCCCN(Cc1cccs1)S(=O)(=O)c1ccc2c(c1)NC(=O)C(C)CS2 (stereo not drawn) | x | 1.12
CC1Cc2ccccc2N1C(=O)C12CCC(C)(C(=O)O1)C2(C)C (stereo not drawn) | -0.71 | x
CCN(CC)CCSc1nc(O)c(C2CCCCC2)c(=O)[nH]1 | -0.72 | 0.67
Cc1ccc(NS(=O)(=O)c2c(C)[nH]c(=O)[nH]c2=O)cc1 | x | 0.15
CCS(=O)(=O)N1CCC(c2c(C)n(Cc3ccccc3C)c3ccccc23)CC1 | x | -0.09
CCN(CC)S(=O)(=O)c1ccc(Oc2ccc(S(=O)(=O)N(CC)CC)cc2)cc1 | -0.6 | 1.57
CCc1nnc(SCC(=O)Nc2ccc(Cl)cc2F)c2cc3sccc3n12 | x | 1.87
CCCOc1ccc(N2CC(C(=O)Nc3ccc4c(c3)OCO4)CC2=O)cc1 (stereo not drawn) | -0.72 | 1.45
O=C(Cc1ccc(NC2=NC3CS(=O)(=O)CC3S2)cc1)Nc1ccc(F)cc1 (stereo not drawn) | -1.62 | 2.22
CC(=O)c1ccc(NC(=O)CSc2nnc(-c3ccc4ccccc4c3)n2C)cc1 | 6.91* | x
COc1cc(NC(=O)c2cc(CN3CCCC3)on2)ncn1 | x | -0.46
O=C(CSc1nnc2scc(-c3ccc(Cl)cc3)n12)NCC1CCCO1 (stereo not drawn) | -0.44 | x
Cc1nc2scc(C)n2c(=O)c1S(=O)(=O)Nc1ccccc1 | -2 | 0.9
COc1ccc2cc3c(N)nn(C(=O)c4ccc(C(C)(C)C)cc4)c3nc2c1 | -2.26 | 2.62
CCC(C)OC(=O)C1=C(C)NC2=C(C(=O)C(C(=O)OC)C(C)C2)C1c1cc(Cl)c(O)c(OC)c1 (stereo not drawn) | -0.64 | -6.19
COc1ccc(Cn2cc(C(=O)c3ccc(OC)cc3)c(=O)c3cc4c(cc32)OCCO4)cc1 | 0.38 | -0.69
CC1(C)NC(=O)N(CC(O)COc2ccc(Br)cc2)C1=O (stereo not drawn) | -0.97 | 2.17
O=C1COc2cc(S(=O)(=O)CCC(=O)N3CCCC4CCCCC43)c(Cl)cc2N1 (stereo not drawn) | x | -0.07
Cc1cc(C)cc(NS(=O)(=O)c2ccc3c(c2)OCC(C(=O)N2CCCC2)O3)c1 (stereo not drawn) | x | 0.57
Cc1nn(CC(=O)NCCN(C)C2CCCCC2)c(=O)c2cc3sccc3n12 | -2.09 | -0.54
O=C(Oc1ccc2c(c1)oc(=O)c1ccccc12)c1ccco1 | -0.6 | 0.33

# (listing goes on)
Molecule | CDC25B CDK2 inh | HIV TAR-Tat
CCn1c(=S)[nH]c2sc3c(c2c1=O)CCCC3 | -4.92 | x
CCOC(=O)c1sc2nc(CNc3ccc(Cl)cc3)[nH]c(=O)c2c1C | -0.66 | -6.27
N#CC1=C2SCN(c3ccccc3F)CN2C(=O)CC1c1cccc(F)c1 (stereo not drawn) | 6.6* | 0.19
CC1CCC(NC(=O)CCC(=O)N2Cc3ccccc3Oc3ncccc32)CC1 (stereo not drawn) | x | 0.98
Cc1cc(C)c(-c2c(NC3CCCCC3C)c(=O)c2=O)cc1C (stereo not drawn) | x | 0.06
COC(=O)c1cc(C)nc(Sc2n[nH]c(-c3cc(Cl)cc(Cl)c3)n2)n1 | -2.36 | x
O=C(CSc1ccc(-c2cccs2)nn1)Nc1ccc(F)cc1 | x | 1.65
Cc1nc2ccccc2n1CCc1nc2c3ccccc3nc(NCc3ccccc3)n2n1 | -1.76 | -0.64
CCOC(=O)Cc1csc(N/N=C\c2ccccc2OC)n1 | -3.1 | x
Cc1ccc(C(=O)NC(C)CCc2ccccc2)cc1NC1=NC2CS(=O)(=O)CC2S1 (stereo not drawn) | -0.56 | -0.22
COc1ccc(/C=C/c2nc(C#N)c(NCc3ccc(F)cc3)o2)cc1OC | -0.42 | -1.3
COc1ccc(-c2coc3cc4oc(=O)c5c(c4cc23)CCC5)cc1 | -1.37 | x
O=C(/C=C/c1cccc(S(=O)(=O)Nc2ccccc2)c1)NO | x | 1.15
O=C(NC(=S)NCc1cccc(Cl)c1)c1csc([N+](=O)[O-])c1 | -1.24 | x

# Screening results deposited in PubChem by Center for Chemical Genomics, University of Michigan.
